# rRNA inh HTS = reduced GFP signal of wild-type E. coli, primary screen, bacterial rRNA inhibitor project, GFP/RFP fluorescence, OD600, single point. E. coli WT GFP vs humanized-ribosome RFP mutants, 24 h; active compounds read low; DMSO median 0, no signal -100. GFP signal change (wild-type ribosome), % (concentration not given with the values). 350,000 compounds, 1.6% hits. AID 720706, 2013;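 active = significant combined selectivity score with lowered wild-type GFP, culture density cut under 30%, mutant RFP and density less affected; inactive = any of these conditions unmet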; also: one replicate is shown; some compounds called inactive have numbers as strong as hits
# rRNA inh HTS OD600 = recorded beside rRNA inh HTS, whose call it bears; OD600 change, %; measured here: OD600 growth;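 optical density of the mix in the first replicate; 0 = DMSO median and -100 = no signal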
# rRNA inh HTS RFP = further read-out of rRNA inh HTS, marked with its call; RFP signal change, %; measured here: RFP humanized mutant strains;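 first replicate; 0 = DMSO median and -100 = no signal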
# The depositor's hits bear a star; & = joins results of further samples. An excerpt; count on the stated rates, not on these rows.
SMILES,rRNA inh HTS,rRNA inh HTS OD600,rRNA inh HTS RFP
CCCNC(=O)[C@@H]1[C@@H](CO)[C@@H]2Cn3c(ccc(C4=CCCC4)c3=O)[C@H]1N2C(=O)C1CC1,0,1,-1.2
Cc1noc(C)c1NC(=O)N(C)C[C@@H]1OCCCC[C@H](C)Oc2ccc(NC(=O)Nc3cccc4ccccc34)cc2C(=O)N([C@@H](C)CO)C[C@H]1C,-5,0,-1.4
C[C@@H]1CN([C@@H](C)CO)C(=O)c2cc(NC(=O)NC3CCCCC3)ccc2O[C@@H](C)CCCCO[C@@H]1CN(C)S(=O)(=O)c1cccs1,-4,-8,-1.5
CO[C@@H]1CN(C)C(=O)c2cc(NC(=O)NC(C)C)ccc2OC[C@@H](C)N(C(=O)NC(C)C)C[C@@H]1C,0,-3,-0.7
O=C(C[C@@H]1CC[C@H]2NC[C@H](O)COC[C@@H]2O1)Nc1ccc(-c2ccccc2)cc1,4,5,2.0
C[C@@H]1CN([C@@H](C)CO)C(=O)c2cc(NC(=O)CCC(F)(F)F)ccc2O[C@@H](C)CCCCO[C@@H]1CN(C)C(=O)C1CCCCC1,-2,0,-1.0
CN1C(=O)c2cc(NC(=O)C3CC3)ccc2OC[C@@H]2O[C@@H](CC(=O)NCCN3CCCC3)CC[C@@H]21,4,6,-0.1
COc1ccccc1Cn1c(C)c(C(=O)NCc2ccc(C#N)cc2)sc1=O,-13,-9,-5.9
C[C@H]1CN([C@@H](C)CO)C(=O)c2cccc(NS(=O)(=O)c3ccc(F)cc3)c2O[C@@H]1CN(C)Cc1ccc(C(=O)O)cc1,-2,-3,-0.5
O=C(Nc1ccc(F)cc1)N[C@H]1C=C[C@H](CC(=O)N2CCOCC2)O[C@@H]1CO,4,7,2.7
CC(C)NC(=O)N[C@H]1CC[C@H](CC(=O)NCc2ccc(Oc3ccccc3)cc2)O[C@@H]1CO,-6&0,-11&3,-0.3&0.2
CCC(=O)N1C[C@H](C)[C@H](OC)CN(C)C(=O)c2cc(NC(=O)c3cc(C)on3)ccc2OC[C@H]1C,2,2,-2.0
O=S(=O)(NCC[C@@H]1CC[C@@H](NS(=O)(=O)c2cccc(Cl)c2)[C@@H](CO)O1)c1cccc(F)c1,-5,-8,5.9
O=C(C[C@@H]1C[C@@H]2c3cc(NC(=O)NC4CCCCC4)ccc3O[C@@H]2[C@H](CO)O1)NC1CCCCC1,-2,1,-0.9
C=CCN(CC=C)Cc1cc(=O)oc2cc(C)c(C)cc12,-10,-9,-6.6
C[C@H]1CN([C@@H](C)CO)C(=O)c2cc(C#CCN(C)C)cnc2O[C@H]1CN(C)C(=O)Cc1cccnc1,5,12,-3.2
CC(C)C1C(=O)N(Cc2cn(CC3CCCCC3)nn2)CCS(=O)(=O)N1Cc1ccc(-c2ccc(Cl)nc2)cc1 (stereo unspecified),4,9,1.6
Cc1ccc(S(=O)(=O)N(C)C[C@@H]2Oc3ccc(NC(=O)NC4CCCCC4)cc3C(=O)N([C@H](C)CO)C[C@@H]2C)cc1,-3,-14,-2.2
C[C@@H]1CCCCO[C@H](CN(C)Cc2ccc(C(=O)O)cc2)[C@H](C)CN([C@@H](C)CO)C(=O)c2cc(NC(=O)NC3CCCCC3)ccc2O1,2,2,-1.1
C[C@H]1CN([C@@H](C)CO)S(=O)(=O)c2ccc(-c3ccccc3)cc2O[C@H]1CN(C)CC1CC1,-6,-6,1.4
CC(=O)N(C)C[C@@H]1Oc2cc(C#Cc3ccccn3)ccc2S(=O)(=O)N([C@@H](C)CO)C[C@@H]1C,-2,8,0.4
O=C(C[C@@H]1CC[C@H]2[C@@H](COC[C@@H](O)CN2C(=O)c2ccc3c(c2)OCO3)O1)NCCN1CCCC1,1,4,0.4
CCCCc1nc2ccc(F)cc2cc1C,9,9,-1.3
C[C@@H]1CN([C@H](C)CO)C(=O)Cc2cc(NS(=O)(=O)c3cn(C)cn3)ccc2O[C@@H]1CN(C)Cc1ccncc1,-1,-3,-1.9
COc1ccc2c3c(n(C)c2c1)[C@H](CO)N(S(C)(=O)=O)CC31CN(CC2CCOCC2)C1,7,12,-1.5
SMILES,rRNA inh HTS,rRNA inh HTS OD600,rRNA inh HTS RFP
Cc1cc(O)cc(=O)n1-c1cccc(Br)c1,-2,-2,1.9
O=C(C1CCOCC1)N1CC(=O)N2[C@H](CO)[C@H](c3ccc(C#CC4CCCCC4)cc3)[C@@H]2C1,3,-1,2.9
COc1ccc2c3c([nH]c2c1)[C@@H](CO)N(S(C)(=O)=O)CC31CCN(C(=O)Nc2ccccc2)CC1,-2,-5,-0.9
CO[C@H](CN(C)C(=O)C1CCOCC1)[C@H](C)CN(C(=O)Nc1ccc(C(F)(F)F)cc1)[C@@H](C)CO,-57,-82,-19
CC=Cc1ccc2n(c1=O)C[C@@H]1[C@@H](CO)[C@H](C(=O)NCCc3ccncc3)[C@H]2N1Cc1ccncc1 (mixture of isomers),5,5,-1.1
CCCC#Cc1ccc([C@@H]2[C@@H](CO)N3CCCCN(CC4CC4)C[C@@H]23)cc1,3,-3,17
COCC#Cc1ccc([C@H]2[C@@H](CO)N3C(=O)CN(C(=O)CN4CCOCC4)C[C@@H]23)cc1,4,11,-3.0
COc1ccccc1-c1ccc2c(c1)[C@H]1[C@H](CCN1S(=O)(=O)c1ccc(C)cc1)[C@@H](CO)N2,-3,6,1.6
N#C[C@@H]1[C@H](c2ccccc2)[C@@H](CO)N1C(=O)Nc1cccc(F)c1,4,26,-1.4
O=C(NCC[C@@H]1CC[C@@H](NC(=O)Nc2cc(F)ccc2F)[C@H](CO)O1)Nc1ccc(Cl)cc1,-14,-15,1.4
O=C(CN1CCOCC1)NCC[C@H]1CC[C@@H](NC(=O)Nc2ccc(C(F)(F)F)cc2)[C@H](CO)O1,0,-1,0.0
C[C@H]1CN(C)C(=O)c2cccc(NS(C)(=O)=O)c2O[C@@H]1CN(C)C,1,5,-2.1
C[C@H]1CN([C@@H](C)CO)C(=O)c2cccc(N(C)C)c2O[C@H]1CN(C)Cc1ccncc1,4,11,0.6
Cc1noc(C)c1S(=O)(=O)Nc1ccc2c(c1)C(=O)N([C@H](C)CO)C[C@@H](C)[C@@H](CN(C)Cc1ccc(C(=O)Nc3ccccc3N)cc1)O2,-1,-6,-0.9
CC(C)C#Cc1cnc2c(c1)C(=O)N([C@H](C)CO)C[C@H](C)[C@@H](CN(C)C(=O)c1cnccn1)O2,6,14,0.7
COc1ccc(C#Cc2ccc([C@@H]3[C@H]4CN(C(C)=O)CC(=O)N4[C@H]3CO)cc2)cc1,-5,-3,-1.7
CC(C)Oc1ccccc1OC1(C)CCN(Cc2ccc(OC(F)(F)F)cc2)C1 (stereo unspecified),8,-11,0.1
CCC(=O)N[C@H]1CC[C@H](CC(=O)NCC2CC2)O[C@H]1CO,3,1,-1.0
COC(=O)[C@]12C[C@H](CC(=O)NCC3CCCCC3)C(=O)N(Cc3ccccc3)C1=C[C@H](C(C)C)O[C@@H]2C1CC1,9,7,1.3
O=C(NCC1CC1)[C@H]1[C@H](CO)[C@H]2Cn3c(cccc3=O)[C@H]2N1Cc1cccc(F)c1,1,-1,0.8
CO[C@@H](CN(C)C(=O)c1ccccc1F)[C@@H](C)CN([C@H](C)CO)S(=O)(=O)c1ccc(Cl)cc1,-4,-1,-3.5
COCC(=O)Nc1ccc2c(c1)C(=O)N(C)[C@H]1CC[C@@H](CC(=O)OC)O[C@H]1CO2,1,-2,0.5
CC(C)NC(=O)N(C)C[C@H]1Oc2ncc(-c3cncnc3)cc2C(=O)N([C@H](C)CO)C[C@@H]1C,11,13,-1.1
C[C@H](CO)N1C[C@H](C)[C@@H](CN(C)Cc2ccc(C(=O)O)cc2)OCc2cnnn2CCCC1=O,3&0,9&-3,-2.3&-0.7
CNC[C@H]1OCCCC[C@@H](C)Oc2ccc(NS(C)(=O)=O)cc2C(=O)N([C@H](C)CO)C[C@@H]1C,1,2,-2.3
SMILES,rRNA inh HTS,rRNA inh HTS OD600,rRNA inh HTS RFP
Cn1cnc(S(=O)(=O)N[C@@H]2C=C[C@@H](CC(=O)Nc3ccc(-c4ccccc4)cc3)O[C@@H]2CO)c1,-1,-4,2.0
O=C(c1ccc(F)cc1)N1CCCCN2[C@@H](CO)[C@@H](c3ccc(-c4ccccc4)cc3)[C@@H]2C1,-59,-68,-11
COc1ccc(NC(=O)C[C@H]2C(=O)N(C3CCCCC3)C[C@@H]2C)cc1,6,-2,1.4
CCc1noc(C)c1C(=O)NCCN1C(=O)S/C(=C\c2ccccc2F)C1=O,0,0,-0.2
Cc1ccc(S(=O)(=O)N[C@@H]2CC[C@H](CCNC(=O)c3ccccc3F)O[C@H]2CO)cc1,0,-2,-2.2
O=C(C[C@H]1C[C@H]2c3cc(NC(=O)Nc4ccc(C(F)(F)F)cc4)ccc3O[C@H]2[C@H](CO)O1)NC1CCCCC1,1,0,2.7
CCc1nc2ccc(C(=O)N3CCN(C(=O)c4ccco4)CC3)cn2c1N(C)Cc1nccs1,-5,-38,8.9
COc1ccc2c3c([nH]c2c1)[C@@H](CO)N(Cc1nccs1)CC31CN(Cc2ccncc2)C1,2,22,0.4
O=C(C[C@@H]1C[C@H]2c3cc(NC(=O)Nc4ccc(C(F)(F)F)cc4)ccc3O[C@H]2[C@H](CO)O1)NCc1cc(F)ccc1F,-4,-2,-5.3
C[C@@H]1CN([C@@H](C)CO)C(=O)c2cccc(NC(=O)c3ccc(-c4nccs4)cc3)c2O[C@@H]1CN(C)Cc1ccccc1,-5,-12,3.2
O=C(C[C@@H]1CC[C@H](NC(=O)Cc2ccccn2)[C@H](CO)O1)NCCc1ccccc1,3,-1,-1.3
COc1cccc(C(C(=O)NC2CCCC2)N2CCN(c3cc(C)ccc3C)CC2)c1OC (stereo unspecified),-4,-10,2.0
O=C(C[C@@H]1C=C[C@H](NS(=O)(=O)c2ccc(F)cc2)[C@H](CO)O1)NCc1ccc(Cl)c(Cl)c1,-10,-26,0.6
CCCCCCCCN1C(=O)[C@H](CC(=O)NCc2ccc(C)o2)C[C@@]2(C(=O)OC)CCCCC=C12,3,-3,18

# Looked up above.
# rRNA inh HTS OD600 with CO[C@@H](CN(C)C(=O)c1ccccc1F)[C@@H](C)CN([C@H](C)CO)S(=O)(=O)c1ccc(Cl)cc1 reads -1
# rRNA inh HTS OD600 with C[C@@H]1CN([C@@H](C)CO)C(=O)c2cc(NC(=O)NC3CCCCC3)ccc2O[C@@H](C)CCCCO[C@@H]1CN(C)S(=O)(=O)c1cccs1 reads -8

# By substructure: the entries above containing fluorine
SMILES,rRNA inh HTS,rRNA inh HTS OD600,rRNA inh HTS RFP
C[C@@H]1CN([C@@H](C)CO)C(=O)c2cc(NC(=O)CCC(F)(F)F)ccc2O[C@@H](C)CCCCO[C@@H]1CN(C)C(=O)C1CCCCC1,-2,0,-1.0
C[C@H]1CN([C@@H](C)CO)C(=O)c2cccc(NS(=O)(=O)c3ccc(F)cc3)c2O[C@@H]1CN(C)Cc1ccc(C(=O)O)cc1,-2,-3,-0.5
O=C(Nc1ccc(F)cc1)N[C@H]1C=C[C@H](CC(=O)N2CCOCC2)O[C@@H]1CO,4,7,2.7
O=S(=O)(NCC[C@@H]1CC[C@@H](NS(=O)(=O)c2cccc(Cl)c2)[C@@H](CO)O1)c1cccc(F)c1,-5,-8,5.9
CCCCc1nc2ccc(F)cc2cc1C,9,9,-1.3
CO[C@H](CN(C)C(=O)C1CCOCC1)[C@H](C)CN(C(=O)Nc1ccc(C(F)(F)F)cc1)[C@@H](C)CO,-57,-82,-19
N#C[C@@H]1[C@H](c2ccccc2)[C@@H](CO)N1C(=O)Nc1cccc(F)c1,4,26,-1.4
O=C(NCC[C@@H]1CC[C@@H](NC(=O)Nc2cc(F)ccc2F)[C@H](CO)O1)Nc1ccc(Cl)cc1,-14,-15,1.4
O=C(CN1CCOCC1)NCC[C@H]1CC[C@@H](NC(=O)Nc2ccc(C(F)(F)F)cc2)[C@H](CO)O1,0,-1,0.0
CC(C)Oc1ccccc1OC1(C)CCN(Cc2ccc(OC(F)(F)F)cc2)C1 (stereo unspecified),8,-11,0.1
O=C(NCC1CC1)[C@H]1[C@H](CO)[C@H]2Cn3c(cccc3=O)[C@H]2N1Cc1cccc(F)c1,1,-1,0.8
CO[C@@H](CN(C)C(=O)c1ccccc1F)[C@@H](C)CN([C@H](C)CO)S(=O)(=O)c1ccc(Cl)cc1,-4,-1,-3.5
O=C(c1ccc(F)cc1)N1CCCCN2[C@@H](CO)[C@@H](c3ccc(-c4ccccc4)cc3)[C@@H]2C1,-59,-68,-11
CCc1noc(C)c1C(=O)NCCN1C(=O)S/C(=C\c2ccccc2F)C1=O,0,0,-0.2
Cc1ccc(S(=O)(=O)N[C@@H]2CC[C@H](CCNC(=O)c3ccccc3F)O[C@H]2CO)cc1,0,-2,-2.2
O=C(C[C@H]1C[C@H]2c3cc(NC(=O)Nc4ccc(C(F)(F)F)cc4)ccc3O[C@H]2[C@H](CO)O1)NC1CCCCC1,1,0,2.7
O=C(C[C@@H]1C[C@H]2c3cc(NC(=O)Nc4ccc(C(F)(F)F)cc4)ccc3O[C@H]2[C@H](CO)O1)NCc1cc(F)ccc1F,-4,-2,-5.3
O=C(C[C@@H]1C=C[C@H](NS(=O)(=O)c2ccc(F)cc2)[C@H](CO)O1)NCc1ccc(Cl)c(Cl)c1,-10,-26,0.6
